Screening data from PubChem.
KCNQ2 inh: KCNQ2 potassium channel inhibitors, primary screen, cell-based, CHO-K1, FluxOR thallium flux, B-score (AID 2156). O88943. 20 min; hits give low values; only compounds with negative scores are shown here; some inactives read as strong as hits. B-score at 10 µM. 310,000 compounds, 1.1% hits;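 active means fluorescence ratio B-score at most minus 3 library SDs, with starting brightness B-score within 2 library SDs, cut at about -5.5 in these data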
Target sequence (O88943 whole entry, looked up): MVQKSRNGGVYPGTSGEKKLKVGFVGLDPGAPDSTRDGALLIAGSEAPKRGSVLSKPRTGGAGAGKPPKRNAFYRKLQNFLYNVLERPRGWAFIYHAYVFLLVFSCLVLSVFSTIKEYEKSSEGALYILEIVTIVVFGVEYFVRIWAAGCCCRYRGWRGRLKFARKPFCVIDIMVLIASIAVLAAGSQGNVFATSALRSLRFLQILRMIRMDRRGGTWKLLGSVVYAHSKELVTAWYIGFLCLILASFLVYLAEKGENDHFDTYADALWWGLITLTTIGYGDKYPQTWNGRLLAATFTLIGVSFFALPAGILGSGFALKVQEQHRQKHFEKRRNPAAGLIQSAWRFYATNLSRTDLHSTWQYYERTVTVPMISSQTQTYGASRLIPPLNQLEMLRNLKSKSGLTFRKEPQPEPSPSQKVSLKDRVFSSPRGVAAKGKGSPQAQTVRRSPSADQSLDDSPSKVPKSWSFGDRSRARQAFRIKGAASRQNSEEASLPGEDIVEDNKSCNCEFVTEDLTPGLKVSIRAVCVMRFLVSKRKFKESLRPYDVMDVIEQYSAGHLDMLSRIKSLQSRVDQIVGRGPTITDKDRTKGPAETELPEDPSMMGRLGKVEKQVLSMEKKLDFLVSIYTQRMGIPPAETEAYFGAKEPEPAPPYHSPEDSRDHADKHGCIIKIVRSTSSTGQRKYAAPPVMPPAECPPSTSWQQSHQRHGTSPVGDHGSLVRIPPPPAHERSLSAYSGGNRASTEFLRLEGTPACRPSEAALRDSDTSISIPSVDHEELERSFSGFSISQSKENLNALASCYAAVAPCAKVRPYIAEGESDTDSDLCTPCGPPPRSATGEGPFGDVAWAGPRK
KCNQ2 inh baseline: further read-out of KCNQ2 inh, marked with its call; B-score; measured here: initial fluorescence intensity artifact check;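 brightness before thallium and not channel activity; 0 = typical well and far values either way flag optical interference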
* = called active by the depositor; i = inactive.

Start of the listing, in advance:
SMILES	KCNQ2 inh	KCNQ2 inh baseline
CCOC(=O)c1[nH]ncc1CN1CCCC(C(=O)c2cccc3ccccc23)C1 (stereo not given)	i	0.19
COc1ccc2[nH]c(=O)c(CN(CC3CCCO3)C(=O)Nc3ccccc3)cc2c1 (stereo not given)	i	-0.18
O=C(Nc1ccc(F)c(Cl)c1)N1CCCC1	i	2.2
Cc1ccc(S(=O)(=O)NCCC(=O)NCC(=O)Nc2c(C)cccc2C)cc1C	i	-0.01
CC1CCCCN1CCCNC(=O)C1CCN(c2nc3ccccc3o2)CC1 (stereo not given)	i	0.03
Cc1ccc(O)c(CCc2ccccc2)n1	i	0.05
COc1ccc(/C=C2\CCCC3C2=NN(C(=O)COC(=O)CNC(=O)c2ccccc2)C3c2ccc(OC)cc2)cc1 (stereo not given)	i	1.1
COc1ccc(N2C(=O)CC(N3CCN(c4ccccc4F)CC3)C2=O)cc1 (stereo not given)	i	0.39
Cn1c(=O)c2c(nc(OCc3cccnc3)n2Cc2c(F)cccc2Cl)n(C)c1=O	i	0.89
CCOC(=O)C1CCN(c2nc(C)cc(C)c2C#N)CC1	i	-0.7
CC(=O)c1cccc(NC(=O)CCc2nnc3ccc(N4CCN(C)CC4)nn23)c1	i	0.95
C=CCc1cc(OC)ccc1OCCOCCC(C(=O)OCC)C(=O)OCC	i	0.29
CCOC(=O)c1ccc(NC(=O)c2ccc(C)c(S(=O)(=O)N3CCOCC3)c2)cc1	i	0.86
O=C(NC1CC1)c1cc2cc(Br)ccc2s1	i	-0.89
O=C(c1cccc(Cl)c1)N1CCN(Cc2ccc3c(c2)OCO3)CC1	i	0.43

The listing, repeating the preview:
SMILES	KCNQ2 inh	KCNQ2 inh baseline
CCOC(=O)c1[nH]ncc1CN1CCCC(C(=O)c2cccc3ccccc23)C1 (stereo not given)	i	0.19
COc1ccc2[nH]c(=O)c(CN(CC3CCCO3)C(=O)Nc3ccccc3)cc2c1 (stereo not given)	i	-0.18
O=C(Nc1ccc(F)c(Cl)c1)N1CCCC1	i	2.2
Cc1ccc(S(=O)(=O)NCCC(=O)NCC(=O)Nc2c(C)cccc2C)cc1C	i	-0.01
CC1CCCCN1CCCNC(=O)C1CCN(c2nc3ccccc3o2)CC1 (stereo not given)	i	0.03
Cc1ccc(O)c(CCc2ccccc2)n1	i	0.05
COc1ccc(/C=C2\CCCC3C2=NN(C(=O)COC(=O)CNC(=O)c2ccccc2)C3c2ccc(OC)cc2)cc1 (stereo not given)	i	1.1
COc1ccc(N2C(=O)CC(N3CCN(c4ccccc4F)CC3)C2=O)cc1 (stereo not given)	i	0.39
Cn1c(=O)c2c(nc(OCc3cccnc3)n2Cc2c(F)cccc2Cl)n(C)c1=O	i	0.89
CCOC(=O)C1CCN(c2nc(C)cc(C)c2C#N)CC1	i	-0.7
CC(=O)c1cccc(NC(=O)CCc2nnc3ccc(N4CCN(C)CC4)nn23)c1	i	0.95
C=CCc1cc(OC)ccc1OCCOCCC(C(=O)OCC)C(=O)OCC	i	0.29
CCOC(=O)c1ccc(NC(=O)c2ccc(C)c(S(=O)(=O)N3CCOCC3)c2)cc1	i	0.86
O=C(NC1CC1)c1cc2cc(Br)ccc2s1	i	-0.89
O=C(c1cccc(Cl)c1)N1CCN(Cc2ccc3c(c2)OCO3)CC1	i	0.43
CN(C)CCNC(=O)c1ccccc1-c1ccccc1	i	-0.83
OC1(c2ccc(Br)cc2)CCNCC1	i	0.8
CC(C)(C)C(=O)Nc1ccc(S(=O)(=O)Nc2nccs2)cc1	i	1.6
COc1ccc(N2CCN(C(=O)CN(c3ccc(OC)cc3)S(=O)(=O)c3ccccc3)CC2)cc1	i	0.23
Cc1cccc(/N=C/c2c(O)cc(C)oc2=O)n1	i	-0.8
CCCNC(=O)C1CCC(CNS(=O)(=O)c2ccc3c(c2)N(C(C)=O)CCO3)CC1 (stereo not given)	i	-1.5
CCC(=O)NNC(=S)NC(=O)c1ccc(C)cc1	i	0.67
Cc1cccc(NC(=O)C2CCCN(C(=O)Nc3ccc(F)cc3)C2)c1 (stereo not given)	i	-0.07
Cc1ccc(-n2cnc3c(sc4nc(N5CCOCC5)c5c(c43)CCCC5)c2=O)cc1	i	1.2
CN1C(=O)c2ccc(NC(=O)c3cccc4ccccc34)cc2C1=O	i	-0.75
O=C(CN1CCN(c2ccc(Cl)cc2)CC1)c1ccc2c(c1)OCO2	i	1.7
CC(C)(C)c1ccc(C(=O)N2CCN(c3ncccn3)CC2)cc1	i	0.06
COc1cc(/C=C/C(=O)OCC(=O)Nc2ccc3c(c2)OCCO3)ccc1O	i	0.16
CCNS(=O)(=O)c1ccc(CCC(N)=O)cc1	i	1.2
COc1c2c(nc3occc13)C(CC=C(C)C)(OC)C(OC(C)=O)CC2 (stereo not given)	i	1.4
O=C(O)Cn1c(=O)c2c3c(sc2n(Cc2ccccc2F)c1=O)CCCC3	-6.2*	-0.23*
O=C(c1ccccc1F)N1CCN(C2CCC(c3ccccc3)CC2)CC1 (stereo not given)	i	-0.5
CCOc1c2ccc(C(=O)NCc3ccc(OC(F)(F)F)cc3)cc2nn1CC	i	-0.15
Cc1ccc(NC(=O)CCc2ccc(S(=O)(=O)N3CCOCC3)cc2)c(C)c1	i	-2.7
COc1ccccc1CNC(=O)c1nn(-c2ccc(C)cc2)c(=O)c2c1c1ccccc1n2C	i	-0.36
O=S(=O)(Nc1ccc(-c2cn3c(n2)SCC3)cc1)c1ccccc1F	i	-0.91
O=C1c2ccccc2C(=O)C12OC(c1ccccc1)C1(C(=O)c3ccccc3C1=O)C2c1ccc([N+](=O)[O-])cc1 (stereo not given)	-7.9*	2.2*
CCOC(=O)N1CCN(C(=O)C2CCN(c3ncnc4c3sc3cccc(F)c34)CC2)CC1	i	0.56
Cc1c(O)c(CN2CCCCC2)cc2c1oc(=O)c1ccccc12	i	3.6
Cc1ccc(C)c(S(=O)(=O)N2CCN(C(=O)c3ccncc3)CC2)c1	i	1.8
CC(C)C(C)NC(=O)COC(=O)c1cc(S(=O)(=O)N(C)C)ccc1N1CCCC1 (stereo not given)	i	-0.04
O=S(=O)(Nc1ccc(S(=O)(=O)N2CCOCC2)cc1)c1ccc(Br)cc1	i	-0.45
CC(=O)NCC(=O)OCC(=O)c1ccc2ccccc2c1	i	1.8
N#Cc1ccc(COC(=O)c2ccc3c(=O)[nH]c(CN4CCOCC4)nc3c2)cc1	i	-1.5
CCSc1nnc(NC(=O)CSc2c(Cl)cccc2Cl)s1	i	-0.03
COc1ccc(-n2c(Cc3cccn3C)nnc2SCC(=O)Nc2ccc(F)cc2)cc1	i	0.41
CCc1nnc(NC(=O)CSc2nnc(CNc3ccc(OC)cc3)n2C)s1	i	-0.73
Cc1onc(-c2ccc(Cl)cc2Cl)c1-c1csc(COc2ccccc2)n1	i	0.39
CC1CC(C)CN(C(=S)Nc2ccc3nc4n(c(=O)c3c2)CCCCC4)C1 (stereo not given)	i	-0.21
C/C(=N/OC(=O)c1c(-c2ccccc2Cl)noc1C)c1cnccn1	i	0.95
COc1cccc(NC(=O)CN2CCN(CC(=O)Nc3ccc(F)cc3)CC2)c1	i	0.48
CC(=O)Nc1ccc(S(=O)(=O)Nc2ccc3c(c2)OCCO3)cc1	i	1.4
Cc1c(Cl)cccc1NC(CC(=O)c1ccccc1)C(=O)O (stereo not given)	i	-0.16
Cn1cccc1/C=N/NC(=O)C12CC3CC(CC(C3)C1)C2	i	-0.71
COc1ccccc1Cn1c(-c2ccccc2OC)nc2ccccc21	i	-0.03
Cc1nc2ncnn2c(N2CCN(C(=O)Cc3cccs3)CC2)c1C	i	1.4
O=[N+]([O-])c1cccc2ccc(/C=C/c3ccc(F)cc3)nc12	i	0.71
OCc1cccc[n+]1CCc1ccccc1	i	0.21
CCOC(=O)N1CCN(CC(=O)Nc2c(C(=O)OC)[nH]c3ccccc23)CC1	i	1.1
Cc1nn(C)c(Oc2ccccc2)c1CCNS(=O)(=O)c1ccccc1	i	0.04

New compounds follow:
SMILES	KCNQ2 inh	KCNQ2 inh baseline
CC(C)(C)NS(=O)(=O)c1cc(C(=O)Nc2sccc2C#N)ccc1Cl	i	5.6
O=C(Nc1ncccc1O)c1cc2ccccc2o1	i	1.8
COc1cccc(OCc2nnc(SCC(=O)NNC(=O)C3CCCCC3)n2C)c1	i	-0.43
CCC(C)(C)NC(=O)C(c1ccc(C)cc1)N(Cc1ccco1)C(=O)CCC(=O)Nc1nccs1 (stereo not given)	i	-0.17
O=C(NCCCN1CCOCC1)C(=O)N/N=C/c1c(Cl)cccc1Cl	i	-3.4
CCN(CC)S(=O)(=O)c1ccc(N2CCCC2)c(NC(=O)Cc2ccccc2)c1	i	0.78
O=C(NCc1ccco1)c1ccc(=O)[nH]n1	i	1.8
O=C(COc1ccccc1)NCCc1nc2ccccc2[nH]1	i	-0.11
O=c1[nH]nc(CNc2cccc(C(F)(F)F)c2)c2ccccc12	i	0.26
CCOC(=O)CN(C(=O)COc1nc(C)cc(C)c1C#N)c1cccc(Cl)c1	i	-0.15
CCCS(=O)(=O)c1c(S(=O)(=O)CCC)c2c3ccccc3ccn2c1C(=O)OC	i	-0.12
CCC(=O)Nc1nc2ccc(NC(C)=O)cc2s1	i	-0.03
Cc1ccc(-c2nnc(SCc3nc(N)nc(Nc4ccccc4C)n3)n2N)cc1	i	0.54
O=[N+]([O-])c1ccc(N(c2ccccc2)c2ccccc2)cc1	i	-1.9
CCOC(Cn1c(-c2ccc(OC)cc2)nc2ccccc21)OCC	i	-1.8
CCOC(=O)C1CN(S(=O)(=O)c2cccs2)c2ccc(CC(=O)OC)cc2O1 (stereo not given)	i	-0.4
CCN(CC)S(=O)(=O)c1ccc2nnn(OCC(=O)Nc3cccc(C#N)c3)c2c1	i	0.02
CCOCCCn1c(=S)[nH]c2cc(C(=O)NCCc3ccccc3)ccc2c1=O	i	0.29
CCNC(=S)N1CCN(c2nc(CC)nc3sc4c(c23)CCCC4)CC1	i	-0.09
COc1ccc(S(=O)(=O)N2CCN(Cc3cc(OC)c(O)c(OC)c3)CC2)cc1	i	0.98
C=CCn1c(-c2ccc(OC)cc2)nc2nc3ccccc3nc21	i	-0.69
Cc1cc(F)ccc1S(=O)(=O)N1CCCOC1CNC(=O)C(=O)NCc1ccccn1 (stereo not given)	i	0.15
O=C(c1ccccc1)N1CCN=C1c1ccccc1	i	0.87
CCOc1cc(NC(=S)Nc2ccccc2)c(OCC)cc1NC(=O)c1ccc(OC)cc1	i	0.41
O=C(CCc1ccccc1)N=C1SC2CS(=O)(=O)CC2N1Cc1ccc(F)cc1 (stereo not given)	i	-0.43
CCN(CC)S(=O)(=O)c1ccc(C(=O)NN(C)C2=NS(=O)(=O)c3ccccc32)cc1	i	-1.1
CCN(CC(=O)Nc1ccccc1C(F)(F)F)C(=O)c1ccccc1SCC(=O)N1CCCC1	i	-0.45
Cc1cc(C)n(-c2cccc(CN(C)Cc3nc(-c4cnccn4)no3)c2)n1	i	0.45
Cc1nc2c(C(=O)N3CCOCC3)cnn2c(C)c1Cc1ccc(Cl)cc1	i	0.01
Cc1cc(NC(=O)Nc2cc(Cl)ccc2C)no1	i	1.9
O=C(O)CNS(=O)(=O)c1ccc2c3c(cccc13)C(=O)N2	i	2.1
CC1CN=C(c2cccn2Cc2ccc(F)cc2Cl)O1 (stereo not given)	i	-0.86
Cc1onc(-c2ccccc2)c1C(=O)OCC(=O)N(C)c1c(N)n(Cc2ccccc2)c(=O)[nH]c1=O	i	1.7
COc1ccccc1CNCC(=O)N1CC(=O)Nc2ccccc21	i	-0.07
COc1ccccc1CNC(=O)COc1ccc(S(=O)(=O)N2CCOCC2)cc1C	i	-0.59
CCN(CC)CCN(Cc1cc2ccc(C)cc2[nH]c1=O)C(=O)Nc1ccc(Cl)cc1	i	0.45
COc1ccc(C(CNC(=O)c2ccc(N3CCCC3=O)cc2)N(C)C)cc1 (stereo not given)	i	0.03
COc1ccc(CN(Cc2cccn2C)S(=O)(=O)c2ccc(C)cc2)cc1	i	1.3
Cc1cc(C)c(C(=O)C(C)OC(=O)Cc2n[nH]c(=O)c3ccccc23)cc1C (stereo not given)	i	-0.4
COc1ccc(NC(=O)c2ccc(COc3ccccc3Br)o2)cc1OC	i	-0.94
Cc1ccc(S(=O)(=O)CC(=O)Nc2nc(-c3ccccc3)cs2)cc1	i	-0.01
Cc1cc(C)c(-c2csc(Cc3nc(-c4cc5ccccc5oc4=O)cs3)n2)cc1C	i	1.2
CCOc1ncccc1C(=O)OCC(=O)c1cccs1	i	-0.25
NC(=O)c1ccc2c(=O)n3c(-c4cc(Cl)c(N)c(Cl)c4)csc3nc2c1	i	0.19
CCc1ccc(NC(=O)Cn2c(=O)oc3cc(S(=O)(=O)N4CCOCC4)ccc32)cc1	i	2.7
CCC(=O)Nc1ccc(C(=O)OCc2ccc(Cl)c(Cl)c2)cc1	i	0.13
CSc1ccccc1C(=O)C1CCCN(S(=O)(=O)c2c(C)noc2C)C1 (stereo not given)	i	0.81
COc1ccccc1Cc1nc(-c2cccnc2)no1	i	1.1
Cc1onc(-c2c(F)cccc2Cl)c1C(=O)N1CCc2ccccc21	i	-1.2
COc1ccccc1-c1c(C)nn2c(N3CCCCCC3)cc(C)nc12	i	-0.11
COc1ccc([N+](=O)[O-])cc1/C=N/NC(=O)CNC(=O)c1cccc(F)c1	i	0.05
CCOC(=O)c1ccc(NC(=O)CCC(CC)C(=O)O)cc1 (stereo not given)	i	-0.47
CCc1nnc(SCC(=O)N2CCCC(N3CCN(c4ccccc4C)CC3)C2)o1 (stereo not given)	i	-0.04
CC(=O)Nc1ccc(S(=O)(=O)Nc2ccc(Nc3ccccc3)cc2)cc1	i	0.2
Cc1ccc(Cl)cc1N(CC(=O)Nc1cccc(N(C)S(C)(=O)=O)c1)S(C)(=O)=O	i	1.9
COc1ccc(-c2nn(-c3ccccc3)cc2/C=C\C(=O)Nc2ccc(C(=O)O)cc2)cc1	i	-1.4
Cc1ccc(C)c(C(=O)COC(=O)CNS(=O)(=O)c2ccccc2)c1	i	0.02
O=C(COc1nc2ccccc2nc1N1CCOCC1)Nc1cccc(S(=O)(=O)N2CCCCC2)c1	i	2.4
CSc1ccccc1C(=O)N1CCN(c2ncccn2)CC1	i	0.29

Only part of the results is shown; the hit share may differ from the screen's.
